UUG fidelity: modulators of yeast start codon fidelity, primary screen, whole organism, S. cerevisiae, single point, plate reader. S. cerevisiae UUG-firefly luciferase reporter, luminescence/redox ratio. activity score, % at 18.7 µM. 0.13% of 350,000 active;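 active means replicate mean at a twofold rise or more, about +100% in these data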;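 further: firefly luciferase made from a UUG start codon reports start codon fidelity; reporter light over untreated wells divided by growth signal over untreated wells; some hits fall short of that in this replicate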
HIV Env fusion: inhibitors of HIV-1 Env-driven cell-cell fusion, primary screen, HeLa-JRFL effector, CEM21 target cells, luciferase. inhibition, % at 12.3 µM. 1.1% of 360,000 active. AID 651610, 2012;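 active means mean replicate inhibition score of at least 50 and every replicate individually at or above 50; inconclusive means only one of the two criteria met; inactive means mean below 50 and not all replicates reaching 50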;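 further: 0% = plate neutral controls and 100% = maraviroc near 300 nM; one replicate is shown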
PABP polyA inh: PABP poly(A) RNA binding inhibitors, primary screen, biochemical, fluorescence polarization, uHTS; Polyadenylate-binding protein 1 (Homo sapiens), P11940; inhibition, % at 35 µM; 1% of 290,000 active; AID 2014, 2009;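 active means 50% or more with normal probe brightness, or confirmed in later tests; inconclusive means above 50% with abnormal brightness, or retests that disagree; inactive means below 50% or failed in later tests; about a fifth of its hits are not listed in these tables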;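 further: calls also rest on retests at 20 µM and on dose response follow-up; controls were probe without protein and protein plus probe with vehicle; some compounds called inactive have numbers as strong as hits; many hits fall short of the cut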
Target sequence (P11940 whole entry, looked up): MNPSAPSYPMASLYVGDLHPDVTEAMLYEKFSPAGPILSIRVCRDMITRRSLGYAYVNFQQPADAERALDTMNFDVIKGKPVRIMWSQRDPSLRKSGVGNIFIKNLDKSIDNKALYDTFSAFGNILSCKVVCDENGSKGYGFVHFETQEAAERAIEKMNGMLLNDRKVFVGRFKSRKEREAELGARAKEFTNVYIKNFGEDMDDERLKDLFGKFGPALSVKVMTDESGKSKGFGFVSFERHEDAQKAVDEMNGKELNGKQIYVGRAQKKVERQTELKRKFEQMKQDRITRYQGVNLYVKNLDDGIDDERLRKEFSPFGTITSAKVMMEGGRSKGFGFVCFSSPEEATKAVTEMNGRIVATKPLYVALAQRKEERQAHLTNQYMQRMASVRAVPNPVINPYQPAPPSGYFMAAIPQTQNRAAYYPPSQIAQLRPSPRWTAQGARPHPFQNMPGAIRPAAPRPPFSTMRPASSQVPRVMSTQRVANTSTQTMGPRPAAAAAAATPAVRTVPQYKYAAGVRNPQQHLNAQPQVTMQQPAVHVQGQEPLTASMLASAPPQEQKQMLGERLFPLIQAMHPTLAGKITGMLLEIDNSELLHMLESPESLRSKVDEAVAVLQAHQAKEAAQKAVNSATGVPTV
MT1-MMP act inh: blockers of MT1-MMP proenzyme processing, primary screen, HT1080 RFP-PRO-GFP cells, GFP/RFP fluorescence; Matrix metalloproteinase-14 (Homo sapiens), P50281; GFP/RFP ratio fluorescence, overnight; percent of plate control window, DMSO zero; GFP/RFP ratio change, % at 20 µM; 0.061% of 360,000 active; AID 651647, 2012;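 active means GFP/RFP ratio change of at least 30% with cell ATP level not reduced by more than half and red fluorescence within 50% of control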; further: strong numbers were not always called active
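Assay system: HT1080 cells carrying an RFP-PRO-GFP reporter | Dosing: Single dose of 20 µM compound, 1% DMSO final | Incubation: Cells overnight before dosing, compound overnight, 37 °C, 5% CO2 | Evaluation: GFP/RFP fluorescence ratio | Control set: DMSO and RFP-L50D-GFP cell wells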
eIF4H inh: human eIF4H binding inhibitors, primary screen, translation initiation inhibitor project, biochemical, uHTS, fluorescence polarization | 0.94% of 290,000 active | Eukaryotic translation initiation factor 4H (Homo sapiens), Q15056 | eIF4H fluorescence polarization binding assay | inhibition, % at 35 µM;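 active means 50% or more with normal probe brightness, or confirmed in later tests; inconclusive means above 50% with abnormal brightness, or retests that disagree; inactive means below 50% or failed in later tests; about a fifth of its hits are not listed in these tables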;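 further: calls also rest on retests at 20 µM and on dose response follow-up; 0% = protein and probe with vehicle and 100% = probe without protein; strong numbers were not always called active; many hits fall short of the cut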
CSC inhib: cancer stem cell viability inhibitors, primary screen, luminescence | cancer stem cell-like cells viability | inhibition, % at 7.5 µM | AID 2717, 2010 | 1.1% of 300,000 active;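 active means mean at 75% or more and at least half the replicates too; inconclusive means mean and replicates disagree; tested in HMLE shEcad cells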;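 further: 0% = median of negative and 100% = median of positive control wells; the first replicate is given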
Rce1 inh: yeast Rce1p protease inhibitors, primary screen, biochemical, fluorescence, cell-free homogeneous | CAAX prenyl protease 2 (Saccharomyces cerevisiae (strain ATCC 204508 / S288c)), Q03530 | yeast membranes, quenched prenylated peptide cleavage fluorescence | calls only | 0.27% of 290,000 active;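 active means fall in fluorescence gain of 50% or more versus controls, with final raw signal at or below 3038400; inconclusive means same 50% fall but final raw signal above 3038400; inactive means fall in fluorescence gain under 50%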;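 further: plate controls were neutral control wells for no effect and wells lacking membranes for full effect; tested at 10 µM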
Target sequence (Q03530 whole entry, looked up): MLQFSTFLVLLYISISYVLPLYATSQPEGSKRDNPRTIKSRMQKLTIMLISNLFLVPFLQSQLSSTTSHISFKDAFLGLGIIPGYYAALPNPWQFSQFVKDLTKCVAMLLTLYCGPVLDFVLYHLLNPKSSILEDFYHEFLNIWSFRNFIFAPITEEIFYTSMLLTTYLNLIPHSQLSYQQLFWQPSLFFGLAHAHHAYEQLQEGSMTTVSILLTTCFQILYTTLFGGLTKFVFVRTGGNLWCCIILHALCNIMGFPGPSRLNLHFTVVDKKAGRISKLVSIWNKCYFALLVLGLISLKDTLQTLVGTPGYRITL
eIF4H inh retest: recorded beside eIF4H inh, whose call it bears; inhibition, %; compound at 20 µM; confirmation average;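 mean of two retest wells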
PABP polyA inh retest: recorded beside PABP polyA inh, whose call it bears; inhibition, %; compound at 20 µM; confirmation repeats;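 mean of two retest wells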
MT1-MMP act inh RFP: second read-out of MT1-MMP act inh, no call of its own (marks repeat the call); RFP signal change, %; measured here: RFP expression control read;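 0 = vehicle wells; hits needed this value within 50% of zero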
* marks the source's active call; other numbers are inactive results; i = inactive; ? = inconclusive; . = not tested or not shown; & = joins results of further samples; [ ] = dose if it differs, or a comment.

SMILES	UUG fidelity	HIV Env fusion	PABP polyA inh	MT1-MMP act inh	MT1-MMP act inh RFP	eIF4H inh	CSC inhib	Rce1 inh	others
C[C@H](CO)N1C[C@H](C)[C@@H](CN(C)Cc2ccncc2)OCCCC[C@H](C)Oc2ccc(NC(=O)CCCN(C)C)cc2C1=O	-6&-16	13[16.7 µM]	.	7	5	.	.	.
Cc1cc(NCCCN)nc(-c2ccccc2O)n1	1	.	-5	0	-3	-10	8	i
CCOC(=O)c1c(NC(=O)CSc2nnc(C)s2)sc2c1CCCCC2	-13	33	-8	-10	-17	-17	-5	i
Cc1nc(NC(=O)c2ccc(Br)o2)ccc1Br	-13	-35	-6	0	1	-11	.	i
NS(=O)(=O)c1cccc(NC(=O)c2ccc(S(=O)(=O)N3CCCCCC3)cc2)c1	-4	-2	.	0	-10	.	4	.
COc1ccc(CCN(C)C(=O)c2ccc3c(=O)n4c(nc3c2)CCCCC4)cc1OC	-2	1	.	2	0	.	-24	.
Cc1cc(C)c(C(=O)CC2(O)C(=O)Nc3ccccc32)cc1C (stereo not given)	-2	.	-10	2	-3	-16	-6	i
CC1CCC(NS(=O)(=O)c2ccc(N3CCCC3=O)cc2)CC1 (stereo not given)	-15	1	5	0	-10	-4	-11	i
O=C(CSc1ccc(Cl)cc1)Nc1ccccc1N1CCN(C(=O)c2ccccc2)CC1	.	.	2	-8	-20	-2	.	i
Cc1cc(O)ccc1-c1cc(C(=O)NCc2cc(C(F)(F)F)cc(C(F)(F)F)c2)[nH]n1	-14	60*	.	2	-3	.	.	.
Cc1cc(CN(C)C(=O)CC2C(=O)NCCN2Cc2ccc(F)c(F)c2)on1 (stereo not given)	-19	8	7	0	1	-9	-12	i
Nc1ccc(C(=O)N/N=C\c2ccc(OC(=O)c3ccccc3Cl)cc2)cc1	-13	24	-4	3	6	-11	8	i
Cc1ccc2nc(SCC(=O)Nc3cc(C)on3)nc(=O)n2c1	.	-53	.	6	3	.	-14	i
O=C(Cc1ccsc1)N1CCN(S(=O)(=O)c2ccccc2F)CC1	-11	-1	.	3	2	.	.	.
Cc1ccc(-n2c(SCC(N)=O)nnc2-c2ccc(S(=O)(=O)N3CCCCC3)cc2)c(C)c1	-8	-14	4	4	-1	-3	-7	i
O=C(CN1CCC(NC(=O)c2ccc(F)cc2)CC1)NCc1ccccc1F	-11	-33	5	6	1	5	-5	i
O=C(NCCOc1ccccc1-c1ccccc1)c1ccco1	.	-3	-7	-1	3	1	-1	i
C=CCNC(=S)NNC(=O)CC12CC3CC(CC(C3)C1)C2	-22	27	-3	3	-1	4	-6	i
Cc1cc(O)c2c(-c3ccccc3)cc(=O)oc2c1	-6	-37	0	-5	-3	11	-3	.
CC[C@H](C)[C@@H](C(=O)N1CCNCC1)n1cc([C@@H](N)CO)nn1	8	5	6	2	5	5	-6	i
Cc1nc2ccccc2c2oc(C(=O)NCCCN3CC(C)CC(C)C3)cc12 (stereo not given)	-9	-6	2	3	3	6	-3	i
CCCc1cc2c(cc1NS(=O)(=O)c1ccc(CCNC(C)=O)cc1)OCO2	.	-45	-3	-4	-3	-8	-6	i
Nc1ccc(C(=O)N2CCN(S(=O)(=O)c3ccc(Cl)cc3)CC2)cc1[N+](=O)[O-]	-12	.	.	2	-2	.	-7	i
CN(N)C(=S)Nc1ccc(Cl)cc1	.	-7	5	6	5	-2	-5	i
Cc1cc(NC(=O)CSc2nc(N)c(NC(=O)c3ccccc3F)c(=O)[nH]2)no1	-11	3	-1	1	4	0	-12	i
O=C(Nc1ccc(Br)c2cccnc12)c1ccc(Cn2cc([N+](=O)[O-])cn2)o1	-5	-17	4	1	6	-6	21	i
Nc1nn(-c2ccccc2)c(N)c1N=Nc1ccccc1F	.	-57	2	-5	-12	0	63	i
CC(=O)C1=C(O)C(=O)N(Cc2cccnc2)C1c1ccc(O)cc1 (stereo not given)	.	3	-12	3	-1	0	-9	i
CC1CCCCN1C(=O)CSc1nc2ccsc2c(=O)n1Cc1ccccn1 (stereo not given)	20	-59	-4	9	-2	-5	-24	i
COc1ccc(/C=N/Nc2nnc(Cc3ccccc3)c(=O)[nH]2)cc1	-5	6	5	6	1	7	-3	i
COc1ccc(/C=C/C=C2\N=C(SC)SC2=O)cc1	.	-43	3	-4	7	6	2	i
COc1cccc(OCC(=O)NNC(=O)CCc2ccccc2)c1	.	2	-7	-1	1	-3	.	i
C/C(Nc1ccc(C)cc1)=C(/C#N)C(N)=O	-18	-69	-10	-6	-2	-7	-6	i
CCCCc1c(O)nc(SC2CC(=O)N(c3ccc(C(=O)OCC)cc3)C2=O)[nH]c1=O (stereo not given)	-3	-33	-7	-7	3	2	-8	i
Cc1ccc(C)c(N2CCN(C(=O)c3ccc(CSc4nc5ccncc5[nH]4)cc3)CC2)c1	-11	39	1	0	-20	7	.	i
Cc1ccc(NC(=O)C(C)Oc2ccccc2)cc1S(=O)(=O)N1CCCCCC1 (stereo not given)	-11	19	.	2	-12	.	.	.
O=C1NC2=C(CCc3ccccc32)C(c2ccc(Br)cc2)N1 (stereo not given)	5	19	0	-5	-2	-8	35	.
C=CCOc1ccc(C2NC(=S)NC(C)=C2C(=O)c2ccccc2)cc1OC (stereo not given)	.	7	-12	.	.	-10	-17	i
C/C(=C\c1ccc(F)cc1)C(=O)c1c(C)cc(C)[nH]c1=O	-18	-7	0	2	2	-4	.	i
Cc1cc(Oc2ccc(N)cn2)ccc1Cl	-8	-3	9.2*	-60	-3	?	28	i	PABP polyA inh retest=87*
Cc1onc(-c2ccccc2)c1C(=O)Nc1nnc(C(C)(C)C)s1	8	-5	5	-3	-3	1	-2	.
Cc1ccc(-c2noc(CCC(N)=O)n2)cc1	-12	-50	-6	-5	0	-6	-9	i
O=C(Nc1nccs1)OCc1ccccc1	-25	-24	.	1	0	.	26	i
Cc1cc(N2CCN(C)CC2)nc2ccc(NC(=O)CCC(=O)NCCC(C)C)cc12	-4	3	0	-5	-5	2	-6	i
Cc1ccc2c(CN3CCN(c4ccccc4F)CC3)cc(=O)oc2c1	-8	10	.	4	-1	.	.	.
Cc1cccc(NC(=O)Cn2cc(C(=O)C3CC3)c3ccccc32)c1	10	6	-11	1	1	0	-2	i
Cc1c(Nc2ncccc2C(=O)O)cccc1C(F)(F)F	2	-3	.	4	-4	.	-3	i
Cc1ncoc1C(=O)N1CCCC(C(=O)c2cccc(OC(C)C)c2)C1 (stereo not given)	.	31	0	6	3	-4	-3	i
CSc1ccccc1NC(=S)Nc1ccc(S(N)(=O)=O)cc1	.	-5	0	0	0	4	-1	i
CCOc1cc(C(=O)OCC(=O)c2c(N)n(C)c(=O)n(C)c2=O)cc(OCC)c1OCC	3	-24	-8	-3	-7	-13	.	i
C=CCN(c1ccccc1)S(=O)(=O)c1cccc(C(=O)NC2CCN(Cc3ccccc3)CC2)c1	-5	-1	.	-2	-17	.	3	i
O=C(Nc1nccs1)c1cc(S(=O)(=O)N2CCOCC2)ccc1Cl	0	8	7	-3	-2	-1	-5	i
CC1CCN(c2ccc(S(=O)(=O)Nc3cc(C(=O)O)cc(C(=O)O)c3)cc2[N+](=O)[O-])CC1	.	5	.	.	.	.	-6	i
Cc1cccc(C)c1Nc1nnc(SCc2nc3ccccc3c(=O)[nH]2)s1	.	9	5	.	.	9	-6	i
COC(=O)[C@@H]1C[C@@]2(O)[C@H](O)[C@H](O)[C@H](O)C[C@H]2N1CC1CC1	-19	29	2	0	3	-6	4	i
Nc1nc(SCC(=O)Nc2ccc(Oc3ccccc3)cc2)n[nH]1	-7	11	3	2	-3	-6	-4	i
O=C(Nc1ccccc1C(=O)O)c1cncc(Br)c1	-10	-158	52	-3	7	0.6*	2	i	eIF4H inh retest=78*;PABP polyA inh retest=26
CC1(c2ccccc2)CC(C)(C)N(C(=O)C2CCCO2)c2ccccc21 (stereo not given)	-2	.	10	-10	-7	4	15	i
O=c1[nH]c2ccccc2c(O)c1-[n+]1ccccc1	-8	-13	-11	-1	-2	-6	-8	i
COCCN(Cc1cc2ccc(C)c(C)c2nc1Cl)C(=O)N1CCOCC1	.	8	6	0	-2	-3	12	i

Remaining list, next part
SMILES	UUG fidelity	HIV Env fusion	PABP polyA inh	MT1-MMP act inh	MT1-MMP act inh RFP	eIF4H inh	CSC inhib	Rce1 inh	others
CCC(C)(C)n1nnnc1C(c1ccc(OC)c(OC)c1)N1CCN(c2ccccc2)CC1 (stereo not given)	-8	.	-4	5	1	-1	.	i
O=C(NC(=S)Nc1ccc(S(=O)(=O)Nc2nccs2)cc1)c1ccc(F)cc1	.	.	6	2	0	0	9	i
CCOc1ccccc1NC(=O)c1cc(SC)ccc1Cl	20	-42	4	-1	-2	0	32	.
CNC(=O)c1ccc(Nc2nnc(-c3ccc(O)cc3)c3ccccc23)cc1	-3	7	15	8	6	8	-6	i
C=CCC[C@H](Cc1ccc(F)cc1)C(=O)OC[C@@H](Cc1c[nH]c2ccccc12)NC(=O)[C@@H](CC=C)CC(=O)NCCO	-6	-80	.	-7	-4	.	.	.
C/C(N)=C(/C#N)C(=O)COC(=O)c1cc(-c2ccc(Br)cc2)nc2ccccc12	.	-3&-6	5	1&-1	1&0	-2	49	i

A run of entries from the list above:
SMILES	UUG fidelity	HIV Env fusion	PABP polyA inh	MT1-MMP act inh	MT1-MMP act inh RFP	eIF4H inh	CSC inhib	Rce1 inh	others
O=C(Nc1ccccc1C(=O)O)c1cncc(Br)c1	-10	-158	52	-3	7	0.6*	2	i	eIF4H inh retest=78*;PABP polyA inh retest=26
CC1(c2ccccc2)CC(C)(C)N(C(=O)C2CCCO2)c2ccccc21 (stereo not given)	-2	.	10	-10	-7	4	15	i
O=c1[nH]c2ccccc2c(O)c1-[n+]1ccccc1	-8	-13	-11	-1	-2	-6	-8	i
COCCN(Cc1cc2ccc(C)c(C)c2nc1Cl)C(=O)N1CCOCC1	.	8	6	0	-2	-3	12	i
CCC(C)(C)n1nnnc1C(c1ccc(OC)c(OC)c1)N1CCN(c2ccccc2)CC1 (stereo not given)	-8	.	-4	5	1	-1	.	i
O=C(NC(=S)Nc1ccc(S(=O)(=O)Nc2nccs2)cc1)c1ccc(F)cc1	.	.	6	2	0	0	9	i
CCOc1ccccc1NC(=O)c1cc(SC)ccc1Cl	20	-42	4	-1	-2	0	32	.
CNC(=O)c1ccc(Nc2nnc(-c3ccc(O)cc3)c3ccccc23)cc1	-3	7	15	8	6	8	-6	i
C=CCC[C@H](Cc1ccc(F)cc1)C(=O)OC[C@@H](Cc1c[nH]c2ccccc12)NC(=O)[C@@H](CC=C)CC(=O)NCCO	-6	-80	.	-7	-4	.	.	.
C/C(N)=C(/C#N)C(=O)COC(=O)c1cc(-c2ccc(Br)cc2)nc2ccccc12	.	-3&-6	5	1&-1	1&0	-2	49	i
